PKD1 kinase inh – blocks activity of human protein kinase D1; Q15139; PKD1 kinase fluorescence polarization assay; inhibition, %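 (about 10 µM by stock and volumes)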; 200,000 tested, 0.056% active; AID 797;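 active = inhibition of 50% or more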;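 also: controls were vehicle for no effect and a reference inhibitor for full effect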
Target sequence (Q15139 whole entry, looked up): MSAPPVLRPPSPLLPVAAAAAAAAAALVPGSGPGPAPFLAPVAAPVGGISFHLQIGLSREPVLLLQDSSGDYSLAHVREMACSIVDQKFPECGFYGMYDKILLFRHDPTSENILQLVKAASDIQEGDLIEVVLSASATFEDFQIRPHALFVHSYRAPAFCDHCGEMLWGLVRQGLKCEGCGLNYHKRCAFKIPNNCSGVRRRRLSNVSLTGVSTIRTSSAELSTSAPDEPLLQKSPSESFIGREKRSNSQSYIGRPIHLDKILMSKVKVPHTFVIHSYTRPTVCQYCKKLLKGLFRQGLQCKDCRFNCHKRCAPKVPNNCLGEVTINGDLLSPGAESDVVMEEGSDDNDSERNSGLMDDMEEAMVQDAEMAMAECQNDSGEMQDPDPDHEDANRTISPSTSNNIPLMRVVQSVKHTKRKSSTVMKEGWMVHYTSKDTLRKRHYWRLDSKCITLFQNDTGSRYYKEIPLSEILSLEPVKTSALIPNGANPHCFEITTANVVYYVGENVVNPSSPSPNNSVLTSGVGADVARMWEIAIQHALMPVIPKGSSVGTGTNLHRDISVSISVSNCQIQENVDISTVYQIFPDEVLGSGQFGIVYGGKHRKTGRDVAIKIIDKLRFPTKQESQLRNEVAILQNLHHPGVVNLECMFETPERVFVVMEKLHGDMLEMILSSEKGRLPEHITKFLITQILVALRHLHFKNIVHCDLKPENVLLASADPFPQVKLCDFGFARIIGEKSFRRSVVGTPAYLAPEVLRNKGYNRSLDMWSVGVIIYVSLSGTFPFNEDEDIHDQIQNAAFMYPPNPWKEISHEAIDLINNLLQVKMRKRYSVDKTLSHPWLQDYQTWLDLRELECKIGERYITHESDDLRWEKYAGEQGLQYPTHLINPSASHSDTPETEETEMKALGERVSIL
Insulin prom inh – TRM-6 insulin promoter activity inhibition; inhibition, % at 2 µM; TRM-6 cells (human fetal islet line), insulin promoter-eGFP reporter, imaging; reporter expression induced with tamoxifen; 130,000 tested, 0.9% active;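 active = inhibition above the mean plus 3 SD, with well images judged a real hit on visual review, cut at about 60% in these data, passing the limit was not always enough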
GALR2 ag – agonists of human galanin receptor 2 (GALR2). O43603. GALR2-expressing cells, agonist activation read-out. 140,000 tested, 0.48% active. AID 803. activation, %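 (tested at 5 µM)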;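 active = above mean plus 3 SD of all compounds, about 5% in these data, not always enough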;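 also: 0% = vehicle buffer wells and 100% = reference agonist at full effect; tested in CHO reporter cells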
HSV replic up – increases HSV replication in cells. HSV replication augmentation in cells, fold increase. maximum fold increase. 220,000 tested, 0.005% active;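 active = peak rise of 1.5-fold or more in the series; tested in PC3 cells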;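 also: first round at 10 µM; read as green reporter fluorescence; hits show the peak of a series up to 25 µM; 1 = signal of infected wells without compound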
RGS16-Gao HTS – regulators of human RGS16-Galphao interaction | O15492+P09471 | bead-based flow cytometry RGS16-Galphao binding, fluorescence; actives lie on both sides | binding response (% of control), % at 10 µM | 220,000 tested, 0.38% active | AID 1441;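 active = below 25% or above 175%, edge rows of some plates excepted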;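 also: Galphao activated by GDP with aluminum fluoride before binding; 100% = wells without compound and 0% = beads without RGS; some results beyond the cut were filed as inactive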
Insulin prom inh cell count – second read-out of Insulin prom inh, no call of its own (marks repeat the call); normalized cell count, %; measured here: cell count, toxicity; reference of the scale not given here;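 cells exposed to compound for 48 h; stained nuclei by imaging scaled within each plate; lower means fewer cells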
HSV replic up primary fold – second read-out of HSV replic up, no call of its own (marks repeat the call); fold increase; compound at 10 µM; measured here: primary screen fold increase 10 uM; tested in PC3 cells;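 GFP signal in the first replicate; 1 = infected wells without compound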
* hit, by the source's call; i = inactive; / = not tested or not shown.

SMILES	PKD1 kinase inh	Insulin prom inh	Insulin prom inh cell count	GALR2 ag	HSV replic up	HSV replic up primary fold	RGS16-Gao HTS
COc1cc(CN2CCNC(=O)C2CC(=O)NCCC2=CCCCC2)cc(OC)c1 (stereo not given)	-6	-21	73	/	i	0.91	142
NNC(=O)CCCNc1ncc(C(F)(F)F)cc1Cl	0	/	/	/	i	0.93	98
CC1CCCC(NC(=O)CSc2ccc(F)cc2)C1C (stereo not given)	-3	7	120	/	i	0.98	103
Cc1sc2ncnc(SCC(=O)NCC(C)C)c2c1C	-2	23	118	2.1	i	0.84	99
CCN(CC)CCNC(=S)Nc1ccc(Cl)cc1	-10	/	/	-0.8	i	0.9	99
COC(=O)c1ccc(NC(=O)COC(=O)CSc2nc(C)cc(C)n2)cc1	-6	/	/	3.2	i	0.91	103
CCOc1cccc2cc(C(=O)NCCC3=CCCCC3)c(=O)oc12	-3	/	/	/	i	0.93	100
Fc1ccc(CNC(=S)NC2CCCC2)cc1	-11	-18	74	-2.0	i	0.96	105
O=C(COc1ccc2ccccc2c1)Nc1ccc(Cc2ccncc2)cc1	9	-96	99	-4.6	i	0.92	101
O=C(Nc1ccc(N2CCOCC2)cc1)c1ccncc1	-5	-37	105	-0.2	i	1	117
CCOC(=O)CC(C)(C)/C(C)=N/Nc1ccc([N+](=O)[O-])cc1[N+](=O)[O-]	-6	0	88	-1.6	i	1.1	47
CC1=NNC(=O)C(CC(=O)Nc2ccc(Cl)c(Cl)c2)C1 (stereo not given)	-3	/	/	0.1	/	/	103
Cc1cccc2cc(CN(Cc3ccco3)C(=O)c3ccncc3)c(=O)[nH]c12	2	0	139	-1.9	i	1	101
COc1ccccc1C1=Nc2cccc3cccc(c23)N1	-8	/	/	-4.2	i	0.88	101
O=C(Cc1cccc2ccccc12)NN1C(=O)C2C(C1=O)C1C=CC2C12CC2 (stereo not given)	-3	/	/	-1.1	i	1	101
Cc1ccc(NC(=S)NC2CC3CCCC(C2)N3Cc2ccco2)cc1 (stereo not given)	-10	/	/	/	i	0.87	108
Cc1cc(OCn2ccc(C(=O)O)n2)ccc1Cl	-20	9	73	-2.5	i	1	100
CCc1cc(OCCN(C)C)ccc1Cl	-4	/	/	/	i	0.92	94
CCOC(=O)Cn1nc(-c2ccccc2)nc1-c1ccccc1	-4	/	/	-0.3	i	1	102
O=C(c1cccs1)N1CCOCC1	-16	/	/	-3.6	i	1	101
O=C(NCc1ccccn1)Nc1ccc(F)cc1	5	12	76	-0.3	i	1.1	110
Cc1noc(C)c1C(=O)Nc1sc2c(c1C(N)=O)CCCCC2	-4	-225	178	-2.8	i	1	94
C/C(=N\NC(=O)CCc1ccc(S(=O)(=O)N2CCOCC2)cc1)c1ccc(OC(F)F)cc1	-3	/	/	/	i	0.99	98
Cc1ccc2nc(NC(=O)/C=C/c3ccc4c(c3)OCO4)sc2c1	-8	-10	86	-1.0	i	0.98	89
Cc1c(Cl)cnc(NC(=O)COC(=O)CCS(=O)(=O)c2ccccc2)c1Cl	-8	14	75	-1.3	i	1	63
COc1ccc(NC(=O)Nc2cccc(OC)c2)cc1	-5	/	/	-0.7	i	1.1	/
COCCN(C(=S)Nc1cc(C)ccc1C)C(C)c1cccnc1 (stereo not given)	-2	-29	99	-1.3	i	0.95	90
CC(C)NC(=O)CSc1nc(N)c(NC(=O)c2ccco2)c(=O)[nH]1	-5	/	/	/	i	0.86	94
CC1(C)CC(N2CCN(C(c3ccccc3)c3ccccc3)CC2)=CC(=[N+]2CCCCC2)C1	/	/	/	/	i	0.65	104
COc1cc(/C=N/Nc2snc(SC)c2C#N)cc(OC)c1OC	-3	43	176	-1.9	i	0.81	107
CCCCCn1c(SCC(=O)OCC)nc2cc(C(=O)NCc3ccco3)ccc2c1=O	-7	-29	100	-0.9	/	/	95
Oc1ccccc1Oc1c(F)c(F)nc(N2CCCC2)c1F	-7	0	83	0.6	i	1.2	104
Cc1cccc(N2CCN(C3=NC(=O)C(=C4CCCCC4)S3)CC2)c1	-14	/	/	-1.0	i	0.72	94
CCOc1ccc(S(=O)(=O)Nc2nc3ccccc3nc2Nc2ccc(N3CCOCC3)cc2)cc1	-4	/	/	1.0	i	2	95
Cc1ccc2nc(Cl)c(/C=N/Nc3nc(C)cc(C)n3)c(=O)n2c1	0	-25	74	0.4	i	1.1	45
Cc1ccc(CN(CCO)CCO)cc1	1	/	/	/	i	1.1	108
Cc1nn(Cc2noc(C(=O)NCc3ccc(F)cc3)n2)c(C)c1Br	3	/	/	/	i	0.9	99
CC(NC(=O)C(=O)N/N=C\c1ccc([N+](=O)[O-])cc1)c1ccccc1 (stereo not given)	1	/	/	/	i	0.99	60
COc1ccc(Cc2nnc(N=Nc3c(O)[nH]c4ccc(Br)cc34)[nH]c2=O)cc1	11	/	/	/	i	1	101
Cc1ccc(S(=O)(=O)/N=c2\sccn2C)cc1	-1	-23	119	-3.5	i	0.93	97
Clc1cccc(C2CCN(Cc3nc(CC4CC4)no3)C2)c1 (stereo not given)	1	/	/	/	i	0.91	108
O=C(CNC(=O)c1ccccc1F)NCCOc1cccc(Cl)c1Cl	5	3	91	-2.1	i	1	93
Cc1ccc(NC(=O)CSc2nccn2Cc2ccccc2)cc1C	-12	-24	56	-1.6	i	0.91	100
Cc1ccc(-n2cccc2/C=N/n2cnnc2)cc1Cl	-2	-47	72	-0.2	i	0.97	105
Nc1nnc(CCS(=O)(=O)c2ccc(Cl)cc2)s1	3	-50	93	-2.9	i	0.75	94
CCc1cccc2c(C(=O)COC(=O)c3ccc(O)cc3)c[nH]c12	-8	13	112	-0.5	i	0.8	87
CC(C)Oc1ccc(NC(=O)c2ccncc2)cc1	-6	/	/	-1.2	i	0.84	104
Cc1ccc(NC(=S)NNC(=O)C2CC2c2ccc(C)cc2)cc1 (stereo not given)	13	6	94	-2.8	i	0.95	103
CCCCNC(=O)c1ccc(NS(=O)(=O)c2ccccc2)cc1	-6	-4	82	-0.7	i	0.9	110
CN(C)c1ccc(-c2nc3ccccc3n2C)cc1	-5	-65	141	-1.1	i	0.78	96
Cc1nn(-c2ccccc2)c2nc(-c3ccco3)cc(C(=O)O)c12	-7	/	/	-0.7	i	1.1	98
COc1cc2c(cc1OC)CN(C(=S)Nc1ccc(OC(F)F)cc1)CC2	4	64	139	/	i	0.95	102
Cc1c(NC(=O)COC(=O)COc2ccc(Nc3ccccc3)cc2)c(=O)n(-c2ccccc2)n1C	-3	-133	133	/	i	0.95	142
COc1ccc(-c2cc(C3CCN(c4ncccc4[N+](=O)[O-])CC3)[nH]n2)cc1	-3	4	123	-1.4	i	0.87	102
Cc1ccccc1C(=O)Nc1ccc2c(c1)OCO2	-1	/	/	-2.0	i	1.1	103
Cc1ccc2ncccc2c1NS(=O)(=O)c1ccccc1	5	-93	132	-0.3	i	0.89	108
Cc1n[nH]c(C)c1S(=O)(=O)N1CCCC(C(=O)Nc2ccc3c(c2)OCCO3)C1 (stereo not given)	-3	/	/	0.3	/	/	104
C=CCN1C=C2C(=O)C(C)(OC(=O)CCc3ccccc3)C(=O)C=C2C=C1c1ccc(C#N)cc1 (stereo not given)	/	/	/	/	i	0.76	98
CN(C)S(=O)(=O)c1ccc(NC(=O)C2CCCN(C(=O)c3ccc(Cl)cc3)C2)cc1 (stereo not given)	4	23	114	-1.0	i	0.88	111
CC(C)[C@H](NC(=O)NCc1ccc(F)cc1)C(=O)O	/	/	/	/	i	0.94	100

Nothing new here: three of the compounds above.
SMILES	PKD1 kinase inh	Insulin prom inh	Insulin prom inh cell count	GALR2 ag	HSV replic up	HSV replic up primary fold	RGS16-Gao HTS
C=CCN1C=C2C(=O)C(C)(OC(=O)CCc3ccccc3)C(=O)C=C2C=C1c1ccc(C#N)cc1 (stereo not given)	/	/	/	/	i	0.76	98
CN(C)S(=O)(=O)c1ccc(NC(=O)C2CCCN(C(=O)c3ccc(Cl)cc3)C2)cc1 (stereo not given)	4	23	114	-1.0	i	0.88	111
CC(C)[C@H](NC(=O)NCc1ccc(F)cc1)C(=O)O	/	/	/	/	i	0.94	100

Additional entries follow:
SMILES	PKD1 kinase inh	Insulin prom inh	Insulin prom inh cell count	GALR2 ag	HSV replic up	HSV replic up primary fold	RGS16-Gao HTS
CCOC(=O)C(CSCC(=O)c1ccc(Cl)cc1Cl)NC(=O)OC(C)(C)C (stereo not given)	2	-221	78	-3.8	i	0.98	113
CCCSc1nnc(CSc2nc(C)cc(C)n2)n1C	-3	/	/	/	i	1.1	94
COc1cc(S(=O)(=O)NCc2cccnc2)c(OC)cc1Br	7	-14	109	-3.5	i	0.79	104
Cc1ccccc1/C=N/Nc1nc2ccccc2[nH]1	1	7	68	/	i	0.77	23
CCc1nc(SCC(=O)O)c(C#N)cc1C	-3	-3	97	-0.3	i	0.91	103
CC(=O)Nc1nc(NC(=O)/C=C/c2ccccc2)n(-c2ccccc2)n1	-8	6	45	-2.2	i	0.99	34
C/C(Cn1cnc([N+](=O)[O-])n1)=N\NC(=O)c1ccccc1O	-1	/	/	/	i	0.94	103
Cc1cc(C)nc(/N=C(\N)Nc2ccc(S(=O)(=O)O)cc2)n1	-7	-50	111	/	i	0.94	40
COc1ccc2c(OC)cc(=O)n(C)c2c1	-1	13	87	-0.3	i	0.94	95
CC(C)(C)c1cc(C(=O)O)nn1-c1ccccc1	-6	22	184	-0.5	i	0.9	108
Cc1ccc(-c2nnc(-c3cccc(NC(=O)c4cccs4)c3)o2)cc1	0	14	110	-1.5	i	1.1	101
CN(c1ccc(C(=O)N2CCN(Cc3ccc4c(c3)OCO4)CC2)cc1)S(C)(=O)=O	-5	/	/	/	i	0.92	104
O=C(O)c1cccc(NS(=O)(=O)c2cccc3cccnc23)c1	4	/	/	-1.5	i	0.91	122
COc1ccc2c(c1OC)C(=O)OC2Nc1nc2ccccc2s1 (stereo not given)	/	/	/	/	i	0.98	90
Cc1ccc(S(=O)(=O)NCC(=O)OCC(=O)N(Cc2ccccc2)C(C)(C)C)cc1	-12	-43	86	-1.2	i	0.92	40

Single records, as listed above.
Record of `Cc1ccccc1/C=N/Nc1nc2ccccc2[nH]1` : PKD1 kinase inh = 1; Insulin prom inh = 7; Insulin prom inh cell count = 68; GALR2 ag = /; HSV replic up = i; HSV replic up primary fold = 0.77; RGS16-Gao HTS = 23
Record of `COc1ccc2c(OC)cc(=O)n(C)c2c1` : PKD1 kinase inh = -1; Insulin prom inh = 13; Insulin prom inh cell count = 87; GALR2 ag = -0.3; HSV replic up = i; HSV replic up primary fold = 0.94; RGS16-Gao HTS = 95

Later entries.
SMILES	PKD1 kinase inh	Insulin prom inh	Insulin prom inh cell count	GALR2 ag	HSV replic up	HSV replic up primary fold	RGS16-Gao HTS
CC1CC(C)(C)n2c(O)c(N=NC(N)=S)c3cccc1c32 (stereo not given)	/	/	/	/	i	0.96	100
COc1ccc(N2CCN(c3ccc(C(N)=O)cc3[N+](=O)[O-])CC2)cc1	-10	/	/	/	i	0.84	101
NC(=O)c1sc2nc3c(c(-c4cccs4)c2c1N)CCCC3	-1	56	141	-0.3	i	0.59	110
CC1CCCN(S(=O)(=O)c2ccc(C(=O)Nc3ccccc3-c3nc4ccccc4[nH]3)cc2)C1 (stereo not given)	1	17	115	0.0	i	0.82	100
O=C(c1cnn2c1NC(c1ccc(Br)cc1)CC2C(F)(F)F)N1CCN(C23CC4CC(CC(C4)C2)C3)CC1 (stereo not given)	0	46	142	1.8	i	0.92	97
CC(=O)c1[nH]c(C)c(C(C)=O)c1C	-8	-27	93	-1.4	i	0.99	101
Cc1ccc(C(=O)Cn2cccn2)cc1	-3	/	/	/	i	1	104
COc1ccc(-n2c3c(c(=O)[nH]c2=O)C(C(F)(F)F)(C(F)(F)F)N=C(CC(C)C)N3)cc1	-8	/	/	-1.0	i	0.97	111
Cc1ccc(NC(=O)CCC(=O)N/N=C/c2ccco2)c(C)c1	2	-14	101	-0.3	i	0.98	104
Cc1c(C(O)CN2CCC(C(N)=O)CC2)c2ccccc2n1C (stereo not given)	-2	42	97	-0.5	i	0.69	101
O=C(COC(=O)/C=C/c1ccco1)NCc1ccc2c(c1)OCO2	-10	/	/	/	i	1	99
CCCN(Cc1ccc(N(C)C)cc1)CC1CC1	0	40	85	-3.9	i	0.85	106
CCOC(=O)C1CCN(C(=O)C2(NC(=O)Nc3ccccc3Cl)CCCCC2)CC1	5	-34	161	-2.5	i	0.99	94
COc1cc(CNC(=O)c2cccc(COc3ccc(Cl)cc3)c2)cc(OC)c1	-9	/	/	-0.8	i	1	100
Cc1cc(Oc2ccc(Cl)cc2)nc(SCC(=O)c2ccccc2)n1	-3	-12	112	0.2	i	1	95
CCOC(=O)CC(=O)CSc1nc2c(c(C)c1C#N)CCC2	-3	/	/	-1.0	/	/	102
CC(=O)Nc1ccc(NC(=O)COc2c(C)cc(Br)cc2C)cc1	5	/	/	/	i	0.95	101
CCn1c(SCC(N)=O)nc2c(c1=O)C1(CCCC1)Cc1ccccc1-2	0	11	83	-3.0	i	0.98	95

High-throughput results from PubChem BioAssay.
